# Assay outcomes: PubChem BioAssay, Broad Institute
# YB-1 expression – inhibitors of YB-1 gene expression, primary screen, cell-based, fluorescence; delta delta Cp (YB-1 minus CDIP) (test concentration not listed); U2OS, qRT-PCR YB-1 vs CDIP delta delta Cp, 16 h; stronger effect = higher value; zero = DMSO, each unit about twofold; 30,000 compounds, 0.37% hits;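 active means delta delta Cp rounded down to an integer at or above 3, about 3 SD of DMSO wells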;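 further: higher means less YB-1 transcript or more CDIP transcript relative to DMSO; stock transfer was 100 nL into about 100 µL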
# MITF inhib – inhibitors of MITF, primary screen, MITF inhibitor project, cell-based, luminescence; TRPM1 promoter luciferase, 24 h; inhibition, % (no concentration beside the values); 37,000 compounds, 0.28% hits;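 active means most replicates at 85% or more, or half of them and the mean; inconclusive means half reach 85% but not the mean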;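 further: human melanocyte line stably carrying TRPM1 promoter luciferase reporter; 0% = vehicle wells and 100% = a positive control; the first replicate is given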
# PD-1 reverse act – activators reversing PD-1 mediated T-cell inhibition, primary screen, luminescence, primary human CD4 T cells, PD-L1 beads; 29,000 tested, under 10 active; CellTiter-Glo 96 h; activation, % (test concentration not listed); AID 2316, 2010;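 active means replicate mean of 50% or more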;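 further: 0% = median vehicle wells and 100% = positive control; 100 nL library stock added to about 50 µL; numbers are from one replicate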
# Shh pathway inh – Hedgehog pathway signaling inhibitors, primary screen, luminescence, Shh-LIGHT2 cells, Gli-luciferase. 22,000 compounds, 2.1% hits. Shh-LIGHT2 Gli-luciferase reporter, 30 h. inhibition, % (no concentration beside the values);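 active means replicate mean of 65% or more; inconclusive means mean lower but half the replicates past it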;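 further: pathway switched on by Shh-conditioned medium diluted 1 in 25 in low serum; 100 nL library stock added to about 40 µL; 0% = median of neutral wells and 100% = positive control level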
# Starred values were filed as active, the others as inactive; ? = inconclusive; nt = no result given. This is a subset. The share of hits here may be higher or lower than overall.
# Every second line gives: YB-1 expression, MITF inhib, PD-1 reverse act, Shh pathway inh
1) COc1ccc(S(=O)(=O)N(C)C[C@H]2Oc3ccc(NC(=O)CCN4CCOCC4)cc3C(=O)N([C@@H](C)CO)C[C@@H]2C)cc1
    0.13, -6, 2.6, -20
2) Cc1noc(C)c1S(=O)(=O)Nc1ccc2c(c1)CC(=O)N([C@@H](C)CO)C[C@H](C)[C@H](CN(C)Cc1ccc(-c3ccccc3)cc1)O2
    0.034, -3, nt, -32
3) CC(=O)NC(Cc1c[nH]c2cc(Cl)ccc12)C(=O)O (stereo not drawn)
    0.68, 25, 0.8, -37
4) Cc1cc(=O)[nH]c(SCCOc2cccc(Br)c2)n1
    nt, -14, 1.0, nt
5) C[C@@H]1CN([C@@H](C)CO)C(=O)c2cc(NC(=O)CCC(F)(F)F)ccc2O[C@@H]1CN(C)CC1CC1
    0.17, -8, 1.6, -6
6) C=C(C)C(O)C(O)c1c(OC)ccc2ccc(=O)oc12 (stereo not drawn)
    1.4, 0, 0.3, 2
7) CC(C)=CCc1c(O)cc(O)c2c1OC(c1ccccc1)CC2=O (stereo not drawn)
    0.67, 18, -0.3, -3
8) C[C@@H]1CN([C@@H](C)CO)C(=O)c2cccc(NC(=O)c3ccc(-c4nccs4)cc3)c2O[C@@H]1CN(C)CC1CC1
    0.35, -4, 3.9, -19
9) CCOc1ccccc1NC(=O)CSc1cc(C)c2cccc(C)c2n1
    nt, 27, -3.8, nt
10) CC(C)/C(N)=N/C(=S)Nc1ccccc1
    -0.21, -28, 2.0, nt
11) COc1ccc(NC(=O)N(C)C[C@H]2Oc3c(NC(=O)C4CCOCC4)cccc3C(=O)N([C@@H](C)CO)C[C@H]2C)cc1
    -0.57, -1, 1.3, 20
12) COc1ccc(CN(C)C[C@H]2Oc3ccc(NC(=O)CCN4CCOCC4)cc3C(=O)N([C@@H](C)CO)C[C@H]2C)cc1
    -0.38, 9, 0.2, -2
13) Cc1[nH]c2ccccc2c1C(=O)CSc1nc2sc3c(c2c(=O)n1-c1ccccc1)CCC3
    nt, -8, -1.0, nt
14) CC(/C=C/C1(O)C(C)CC(O)CC1(C)C)OC1OC(CO)C(O)C(O)C1O (stereo not drawn)
    1.9, nt, nt, -30
15) O=C(Nc1sc2c(c1C(=O)Nc1ccccc1)CCCC2)c1ccccc1
    -0.15, 5, -1.3, 6
16) Cc1noc(C)c1NC(=O)N(C)C[C@@H]1Oc2c(cccc2N(C)C)C(=O)N([C@H](C)CO)C[C@H]1C
    0.075, 14, 0.3, -19
17) CCCCc1c(O)nc(SCCC(=O)O)[nH]c1=O
    -0.42, 20, -0.2, -1
18) C[C@H](CO)N1C[C@H](C)[C@@H](CN(C)C(=O)Nc2ccc(F)cc2)Oc2ccc(NC(=O)Nc3cccc4ccccc34)cc2C1=O
    0.39, 7, -2.8, 49
19) COc1ccc(S(=O)(=O)Nc2ccc3c(c2)C(=O)N([C@H](C)CO)C[C@H](C)[C@@H](CN(C)C(=O)Nc2ccc4c(c2)OCO4)OCCCC[C@@H](C)O3)cc1
    -0.038, 1, nt, nt
20) C[C@@H]1CN([C@H](C)CO)C(=O)c2cccc(NS(=O)(=O)c3ccccc3)c2O[C@H]1CN(C)C(=O)Nc1ccc2c(c1)OCO2
    0.056, -4, 1.8, 1
21) CC1CC[C@@]2(OC1)O[C@H]1CC3C4CC=C5C[C@@H](O[C@@H]6O[C@H](CO)[C@@H](O)[C@H](O)[C@H]6O)CC[C@]5(C)C4CC[C@]3(C)[C@@]1(O)[C@@H]2C (stereo partly drawn)
    0.73, nt, nt, 57
22) C[C@H](CO)N1C[C@H](C)[C@H](CN(C)Cc2ccc(C(F)(F)F)cc2)Oc2ccc(NS(C)(=O)=O)cc2C1=O
    -0.73, 4, -0.3, -26
23) C[C@H]1CN([C@@H](C)CO)C(=O)Cc2cc(N(C)C)ccc2O[C@H]1CN(C)Cc1ccc(Cl)c(Cl)c1
    -0.048, -19, -2.1, 28
24) Cc1ccc(NC(=O)Cn2cc([N+](=O)[O-])cn2)cc1Cl
    nt, -23, -0.5, nt
25) COC(=O)c1cc(NC(=O)c2ccco2)cc(C(=O)OC)c1
    -0.3, 6, -1.1, 27
26) C=C1C(=O)OC2CC1C(OC(C)=O)C/C(C)=C\CC/C(C)=C\CC[C@]2(C)O (stereo partly drawn)
    0.032, ?, nt, 87*
27) C[C@H]1CN([C@@H](C)CO)C(=O)Cc2cc(NC(=O)CCC(F)(F)F)ccc2O[C@H]1CN(C)Cc1ccc(Oc2ccccc2)cc1
    0.15, 1, -0.3, -11
28) C[C@H](CO)N1C[C@H](C)[C@@H](CN(C)C(=O)Nc2ccc(F)cc2)Oc2c(cccc2N(C)C)C1=O
    0.19, 1, -1.2, -11
29) COc1ccc2c(c1)cc(C)c1nnc(SCC(=O)Nc3cccc(C(C)=O)c3)n12
    -0.64, 0, -0.8, -30
30) C[C@@H]1CN([C@@H](C)CO)C(=O)c2cccc(NC(=O)Nc3ccccc3)c2O[C@@H]1CN(C)Cc1ccccc1
    0.18, -25, -0.2, 19

# Molecules above containing a COOH group (two):
# Every second line gives: YB-1 expression, MITF inhib, PD-1 reverse act, Shh pathway inh
3) CC(=O)NC(Cc1c[nH]c2cc(Cl)ccc12)C(=O)O (stereo not drawn)
    0.68, 25, 0.8, -37
17) CCCCc1c(O)nc(SCCC(=O)O)[nH]c1=O
    -0.42, 20, -0.2, -1

# (next part)
# Every second line gives: YB-1 expression, MITF inhib, PD-1 reverse act, Shh pathway inh
31) C[C@H]1CN([C@@H](C)CO)C(=O)Cc2cc(NC(=O)Cc3ccccc3)ccc2O[C@H]1CN(C)Cc1ccccc1
    -0.25, -8, nt, -22
32) C[C@H]1CN([C@@H](C)CO)C(=O)Cc2cc(NC(=O)CCN3CCOCC3)ccc2O[C@@H]1CN(C)Cc1ccc(Cl)c(Cl)c1
    -0.052, -11, 2.9, -19
33) O=C(O)CNC(=O)c1ccc(S(=O)(=O)N2CCCC2)cc1
    nt, -6, 3.1, nt
34) CC(C)NC(=O)N(C)C[C@@H]1Oc2ccc(NS(=O)(=O)c3ccccc3)cc2C(=O)N([C@@H](C)CO)C[C@H]1C
    0.24, -7, 1.5, -6
35) COc1ccc(C(=O)CSc2nnc(-c3ccc(OC)c(OC)c3)n2-c2ccccc2)cc1
    nt, 55, -3.5, nt
36) C[C@H](CO)N1C[C@H](C)[C@H](CN(C)Cc2ccc(C(=O)O)cc2)Oc2ccc(NS(=O)(=O)c3ccc(Cl)cc3)cc2CC1=O
    0.15, -14, 2.2, -35
37) Cc1cc(C)nc(NS(=O)(=O)c2ccc(Nc3nc(-c4ccc(F)cc4)cs3)cc2)n1
    nt, -9, -1.0, nt
38) Cc1ccc(NC(=O)C(C)Oc2ccc(Br)cc2)c([N+](=O)[O-])c1 (stereo not drawn)
    nt, -33, 0.3, nt
39) CCc1ccccc1NC(=O)CSc1nnc(-c2cccc(C)c2)n1C
    nt, 1, 1.4, nt
40) C[C@@H]1CN([C@@H](C)CO)C(=O)c2cccc(NS(=O)(=O)c3cccs3)c2O[C@H]1CN(C)Cc1ccc(C(F)(F)F)cc1
    0.14, -11, 1.0, -10
41) C[C@H]1CN([C@@H](C)CO)C(=O)Cc2cc(NC(=O)Cn3cnnn3)ccc2O[C@@H]1CN(C)S(=O)(=O)c1ccc(F)cc1
    0.26, 19, 1.9, -10
42) CNC[C@@H]1Oc2ccc(NS(=O)(=O)c3ccc(Cl)cc3)cc2CC(=O)N([C@H](C)CO)C[C@@H]1C
    -0.24, -5, 1.5, 0
43) CN(Cc1nc(-c2cccnc2)no1)S(=O)(=O)c1ccc2ccccc2c1
    nt, 6, 1.0, nt
44) O=C(Cc1ccccc1)Oc1ccc(C2SCCS2)cc1
    -0.36, -14, 0.4, -61
45) Cc1noc(C)c1NC(=O)Nc1cccc2c1O[C@@H](CN(C)Cc1ccc(C(=O)O)cc1)[C@@H](C)CN([C@@H](C)CO)C2=O
    -0.71, 0, 0.8, -7
46) Nc1cccc(NC(=O)c2cccc(S(=O)(=O)Nc3cccc(N)c3)c2)c1
    -0.17, 11, 1.5, 20
47) C[C@H](CO)N1C[C@H](C)[C@H](CN(C)S(C)(=O)=O)Oc2ccc(NC(=O)Nc3ccc(F)cc3)cc2C1=O
    0.06, -5, -0.2, -25
48) Cc1noc(C)c1NC(=O)Nc1ccc2c(c1)CC(=O)N([C@@H](C)CO)C[C@@H](C)[C@@H](CN(C)S(=O)(=O)c1ccccc1)O2
    0.27, -2, 0.2, -10
49) COc1ccc(NC(=O)Nc2cccc3c2O[C@H](CN(C)C(=O)Nc2ccccc2)[C@H](C)CN([C@@H](C)CO)C3=O)cc1
    -0.42, -3, 0.0, -1
50) COc1ccc(S(=O)(=O)N(C)C[C@H]2Oc3ccc(NC(=O)Nc4ccc5c(c4)OCO5)cc3CC(=O)N([C@@H](C)CO)C[C@@H]2C)cc1
    0.084, 24, 0.3, 27
51) COc1cc2c(cc1OC)[C@H]1[C@@H](C)c3ccc(OC)c(OC)c3CN1CC2
    0.23, nt, nt, -8
52) C[C@@H]1CN([C@@H](C)CO)C(=O)c2cccc(NC(=O)Nc3ccccc3)c2O[C@H]1CN(C)C(=O)Nc1ccc2c(c1)OCO2
    0.12, -2, nt, 24
53) COc1cc(OC)c2c(OC)c(-c3ccc4c(c3)OCO4)c(=O)oc2c1
    0.37, -49, nt, -18
54) C[C@@H]1CN([C@H](C)CO)C(=O)c2cccc(NS(=O)(=O)c3cccs3)c2O[C@@H]1CN(C)C(=O)Nc1ccccc1
    0.46, -1, 1.1, -32
55) C[C@H](CO)N1C[C@H](C)[C@@H](CN(C)S(=O)(=O)c2cn(C)cn2)Oc2ccc(NS(=O)(=O)c3ccc(F)cc3)cc2C1=O
    -0.11, -5, nt, -23
56) CCOc1cc(C)c(Cl)cc1S(=O)(=O)NC1CC(C)(C)NC(C)(C)C1
    nt, 4, -0.5, nt
57) NNC(=O)c1ccc(CSc2ccc(C(F)(F)F)cn2)o1
    -0.51, -10, 0.9, -39
58) C[C@@H]1CN([C@@H](C)CO)C(=O)c2cc(NC(=O)C3CCCCC3)ccc2O[C@H]1CN(C)C(=O)Nc1ccc(C(F)(F)F)cc1
    0.15, 4, nt, -105
59) COc1ccc(NC(=O)N(C)C[C@H]2Oc3c(NC(=O)NC(C)C)cccc3C(=O)N([C@H](C)CO)C[C@H]2C)cc1
    -0.23, -6, 0.6, -25
60) C[C@H](CO)N1C[C@H](C)[C@H](CN(C)Cc2ccccc2)Oc2c(NC(=O)C3CCOCC3)cccc2C1=O
    -0.22, -9, 1.3, -14
61) Cc1cc(=O)[nH]c(SC(C(=O)O)c2ccccc2)n1 (stereo not drawn)
    0.36, -10, -0.1, -8
62) CC(=O)Nc1ccc(-c2nnc(SCC(=O)Nc3cccc(C(F)(F)F)c3)n2C)cc1
    nt, 10, 2.6, nt
63) CSc1cccc(NC(=O)C(C)N(c2ccc(C)c(C)c2)S(C)(=O)=O)c1 (stereo not drawn)
    nt, 11, -0.3, nt
64) C[C@@H]1CCCCO[C@@H](CN(C)C(=O)CCCN(C)C)[C@@H](C)CN([C@H](C)CO)C(=O)c2cc(NS(=O)(=O)c3ccccc3)ccc2O1
    -0.018, -3, 1.3, -13
65) Cc1noc(C)c1NC(=O)N(C)C[C@@H]1Oc2ccc(NC(=O)Nc3ccc(C(F)(F)F)cc3)cc2C(=O)N([C@@H](C)CO)C[C@@H]1C
    -0.22, -5, 0.2, -30
66) C[C@H]1CN([C@@H](C)CO)C(=O)Cc2cc(NC(=O)Nc3ccc4c(c3)OCO4)ccc2O[C@@H]1CN(C)S(=O)(=O)c1ccc(F)cc1
    -0.18, -22, -0.6, -13
67) CCOc1ccc(C(=O)c2oc3ccccc3c2NC(=O)c2cc(OC)c(OC)c(OC)c2)cc1
    nt, -16, 1.4, nt
68) Cc1noc(C)c1S(=O)(=O)Nc1cccc2c1O[C@H](CN(C)S(=O)(=O)c1cccs1)[C@H](C)CN([C@@H](C)CO)C2=O
    1.5, -14, -3.7, -9
69) Cn1c(=O)/c(=C/c2ccccc2)n(C)c(=O)/c1=C/c1ccccc1
    1.1, -16, 2.9, -12
70) Cc1ccc(S(=O)(=O)N(C)C[C@H]2Oc3c(NC(=O)C4CC4)cccc3C(=O)N([C@@H](C)CO)C[C@@H]2C)cc1
    -0.11, -6, 1.5, 28
71) Nc1c(Br)cc(Br)cc1CNC1CCC(O)CC1 (stereo not drawn)
    -0.24, 31, nt, 42

# Among those listed so far, 3 have bromine:
# Every second line gives: YB-1 expression, MITF inhib, PD-1 reverse act, Shh pathway inh
4) Cc1cc(=O)[nH]c(SCCOc2cccc(Br)c2)n1
    nt, -14, 1.0, nt
38) Cc1ccc(NC(=O)C(C)Oc2ccc(Br)cc2)c([N+](=O)[O-])c1 (stereo not drawn)
    nt, -33, 0.3, nt
71) Nc1c(Br)cc(Br)cc1CNC1CCC(O)CC1 (stereo not drawn)
    -0.24, 31, nt, 42
